Screens as filed in PubChem.
eIF4H inh: inhibitors of RNA binding by human eIF4H. Q15056. eIF4H fluorescence polarization binding assay. inhibition, % at 35 µM. 290,000 compounds, 0.94% hits. AID 2012;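 active means 50% or more with normal probe brightness, or confirmed in later tests; inconclusive means above 50% with abnormal brightness, or retests that disagree; inactive means below 50% or failed in later tests; about a fifth of its hits are not listed in these tables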;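 further: calls also rest on retests at 20 µM and on dose response follow-up; 0% = protein and probe with vehicle and 100% = probe without protein; strong numbers were not always called active; many hits fall short of the cut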
PABP FP inh: blocks human PABP binding to poly(A) RNA | fluorescence polarization | inhibition, % at 35 µM | 290,000 compounds, 1% hits;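 active means 50% or more with normal probe brightness, or confirmed in later tests; inconclusive means above 50% with abnormal brightness, or retests that disagree; inactive means below 50% or failed in later tests; about a fifth of its hits are not listed in these tables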;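 further: calls also rest on retests at 20 µM and on dose response follow-up; controls were probe without protein and protein plus probe with vehicle; some compounds called inactive have numbers as strong as hits; many hits fall short of the cut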
Target sequence (P11940 whole entry, looked up): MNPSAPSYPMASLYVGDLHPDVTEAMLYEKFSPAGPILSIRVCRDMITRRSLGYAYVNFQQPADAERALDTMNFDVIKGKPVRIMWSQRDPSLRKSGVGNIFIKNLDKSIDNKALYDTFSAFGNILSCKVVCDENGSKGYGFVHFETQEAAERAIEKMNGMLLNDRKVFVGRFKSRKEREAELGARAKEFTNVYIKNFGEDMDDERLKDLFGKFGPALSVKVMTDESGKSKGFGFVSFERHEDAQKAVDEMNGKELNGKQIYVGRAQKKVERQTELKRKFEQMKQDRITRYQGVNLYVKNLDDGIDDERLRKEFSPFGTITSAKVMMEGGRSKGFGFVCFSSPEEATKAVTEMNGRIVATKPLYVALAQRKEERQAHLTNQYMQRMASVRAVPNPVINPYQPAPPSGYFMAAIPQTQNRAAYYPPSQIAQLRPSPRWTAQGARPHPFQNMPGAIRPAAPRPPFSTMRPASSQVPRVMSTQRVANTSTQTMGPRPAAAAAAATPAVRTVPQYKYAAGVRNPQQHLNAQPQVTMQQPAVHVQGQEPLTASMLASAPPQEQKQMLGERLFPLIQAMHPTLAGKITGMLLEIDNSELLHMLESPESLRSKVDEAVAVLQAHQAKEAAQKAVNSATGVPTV
MT1-MMP act inh: inhibitors of human MT1-MMP activation; 360,000 compounds, 0.061% hits; HT1080 RFP-PRO-GFP cells, GFP/RFP ratio fluorescence, overnight; percent of plate control window, DMSO zero; P50281; GFP/RFP ratio change, % at 20 µM; AID 651647;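 active means GFP/RFP ratio change of at least 30% with cell ATP level not reduced by more than half and red fluorescence within 50% of control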; further: strong numbers were not always called active
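Assay system: HT1080 RFP-PRO-GFP cells | Dosing: 20 µM single dose, 1% DMSO | Incubation: Cells overnight before dosing, compound overnight, 37 °C, 5% CO2 | Evaluation: GFP/RFP fluorescence ratio | Control set: DMSO-only wells and HT1080 RFP-L50D-GFP cell wells as references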
UUG fidelity: yeast start codon fidelity modulation | activity score, % at 18.7 µM | AID 602363 | S. cerevisiae UUG-firefly luciferase reporter, luminescence/redox ratio | 350,000 compounds, 0.13% hits;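 active means replicate mean at a twofold rise or more, about +100% in these data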;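 further: firefly luciferase made from a UUG start codon reports start codon fidelity; reporter light over untreated wells divided by growth signal over untreated wells; some hits fall short of that in this replicate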
CSC inhib: cancer stem cell inhibition. cancer stem cell-like cells viability, luminescence. inhibition, % at 7.5 µM. 300,000 compounds, 1.1% hits;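 active means mean at 75% or more and at least half the replicates too; inconclusive means mean and replicates disagree; tested in HMLE shEcad cells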;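 further: 0% = median of negative and 100% = median of positive control wells; the first replicate is given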
HIV Env fusion: inhibitors of HIV Env-mediated cell fusion | HeLa-JRFL Env/CEM21 cell fusion, luciferase | inhibition, % at 12.3 µM | 360,000 compounds, 1.1% hits;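 active means mean replicate inhibition score of at least 50 and every replicate individually at or above 50; inconclusive means only one of the two criteria met; inactive means mean below 50 and not all replicates reaching 50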;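 further: 0% = plate neutral controls and 100% = maraviroc near 300 nM; one replicate is shown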
Rce1 inhib: inhibitors of yeast Ras-converting enzyme; Q03530; yeast membranes, quenched prenylated peptide cleavage fluorescence; calls only; 290,000 compounds, 0.27% hits;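 active means fall in fluorescence gain of 50% or more versus controls, with final raw signal at or below 3038400; inconclusive means same 50% fall but final raw signal above 3038400; inactive means fall in fluorescence gain under 50%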;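 further: plate controls were neutral control wells for no effect and wells lacking membranes for full effect; tested at 10 µM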
MT1-MMP act inh RFP: recorded beside MT1-MMP act inh, whose call it bears; RFP signal change, %; measured here: RFP expression control read;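 0 = vehicle wells; hits needed this value within 50% of zero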
Starred values were filed as active, the others as inactive; i = inactive; ? = inconclusive; . = no result given.

SMILES	eIF4H inh	PABP FP inh	MT1-MMP act inh	MT1-MMP act inh RFP	UUG fidelity	CSC inhib	HIV Env fusion	Rce1 inhib
C[C@H](O)[C@@H](C(=O)N1CCN(C(=O)OC(C)(C)C)CC1)n1cc(CCCCNC(=O)OC(C)(C)C)nn1	-9	-2	3	1	-6	-20	-9	i
Cc1ccc(-n2c(SCc3ccc([N+](=O)[O-])cc3)nc3ccccc3c2=O)cc1	2	9	.	.	.	-2	41	i
Nc1nc(=S)c2ncn([C@@H]3O[C@H](CO)[C@@H](O)[C@H]3O)c2[nH]1	.	.	13	-7	-18	98*	38	.
CC(C)n1nc(C(=O)Nc2cccc(S(=O)(=O)NCc3ccco3)c2)c2ccccc2c1=O	-15	-11	-1	-6	.	11	-5	i
Clc1ccc(Nc2ncn[nH]2)c(Cl)c1	-2	-7	2	3	-29	-3	5	i
CCOC(=O)c1c(C)c(C(=O)Nc2ccc3c(c2)OCO3)c(C)n1C	2	-2	4	11	-16	.	-44	i
COc1ccc(CC(=O)NCc2cccs2)cc1	0	1	7	5	-3	19	-346	i
COc1c(F)c(F)cc2c(=O)c(C(=O)O)cn(C3CC3)c12	-7	-7	-2	-5	5	-10	19	i
COc1ccc(C[C@H]2CN3C(=NC[C@H]3C)N2CCNC(=O)c2ccc(C)c(Br)c2)cc1	6	-5	2	-2	-4	0	-19	i
CSc1ccc(CCNC(=O)C2CCCN(c3nn4c(=O)cc(C)nc4s3)C2)cc1 (configuration not stated)	-2	7	-2	2	-12	-4	3	i
O=C(CN1C(=O)NC2(CCCC2)C1=O)N1CCCSC1=Nc1ccccc1	.	.	3	1	-14	.	11	.
Cc1noc(C)c1COc1ccc(C(=O)NCC2CCCO2)cc1 (configuration not stated)	-6	0	-4	1	-11	-21	-19	i
Cc1cc(C)c(CN2CCN(CCCn3cnc(C(=O)Nc4ccc(C)c(C)c4)n3)CC2)c(C)c1	.	.	-2	-6	-17	.	3	.
COCCNC(=O)c1cc2c(-c3ccc(Cl)cc3)nn(C)c2s1	-4	-6	3	3	-3	7	-83	i
O=C(Cc1c[nH]c2ccccc12)NC1(C(=O)NC2CCCCC2)CCCCC1	10	3	-6	-8	.	4	.	i
Cc1onc(-c2ccccc2Cl)c1C(=O)Nc1ccc2c(c1)OCO2	0	-6	-1	0	-2	11	.	i
Cc1cc(NC(=O)Nc2cccc(C)c2C)no1	-8	-6	-1	-1	.	4	11	i
Nc1ccc(-c2nc3ncccc3o2)c(Cl)c1	-6	-5	3	-2	1	1	-108	i
Cc1ccc2sc(N3CCN(C(=O)C4=COCCO4)CC3)nc2c1C	.	.	0	-1	.	1	.	i
O=C(NC(=S)Nc1cccc([N+](=O)[O-])c1)C1CCCC1	4	7	-5	-5	-40	4	7	i
COc1cccc(N=Cc2c(O)c3ccccc3oc2=O)c1	4	5	-5	3	-28	27	15	i
CC(=O)N1CCN(CC(=O)Nc2ccc(Cl)c(S(=O)(=O)N(C)C)c2)CC1	0	2	-1	-1	.	-7	-20	i
COc1ccccc1N1CCN(C(=O)c2ccc([N+](=O)[O-])s2)CC1	0	4	11	4	.	-7	-9	i
CC1CCCN(C(=O)c2sc3cc([N+](=O)[O-])ccc3c2Cl)C1 (configuration not stated)	-8	-4	4	-11	6	-4	.	i
COc1ccc(CCNC(=S)NC(=O)c2cccc([N+](=O)[O-])c2)cc1OC	6	-2	-1	-1	-21	1	7	i
O=C(CN(C(=O)CCC(=O)Nc1ccccn1)c1ccc2c(c1)OCCO2)NCCc1ccccc1	1	4	-4	1	-19	-11	.	i
Cc1ccc(OCCCC(=O)Nc2nc3ccccc3[nH]2)cc1	0	-4	1	4	.	.	-2	i
CC(C)CNC(=O)C1(C)CCCN1C(=O)c1cccnc1Oc1ccccc1 (configuration not stated)	.	.	0	0	0	.	13	.
OCCCNc1ncnc2c1cnn2-c1ccc(Cl)cc1	-6	7	-3	-7	-54	-2	-68	i
Cc1cccc(Cn2c(N3CCCCC3C)nc3c2c(=O)[nH]c(=O)n3C)c1 (configuration not stated)	-8	-9	-5	-4	-4	2	-6	i
Cc1ccc(NC(=O)Nc2cc(S(=O)(=O)N(C)C)ccc2C)cc1	5	7	0	-2	.	2	-4	i
Cc1cnc(C(=O)OCc2csc(CC(=O)Nc3ccccc3C)n2)cn1	-11	20	-3	-2	-15	4	-4	i
Nc1nonc1-n1nnc(C(=O)N/N=C/c2cccnc2)c1CSc1ccccc1	3	9	7	3	-7	0	-9	i
Cc1oc(-c2ccccc2Cl)nc1CN(Cc1ccccn1)C[C@@H]1CCC(=O)N1	13	6	2	6	.	-12	-6	i
CC(C)(C)c1cc(CCC(=O)NCc2cccnc2)cc(C(C)(C)C)c1O	2	8	2	1	0	-22	15	i
CCOC(=O)c1c(CN2CCOCC2)oc2ccc(OC(C)=O)cc12	1	3	7	2	-1	-2	6	.
COc1ccc(NS(=O)(=O)c2ccc(NC(=S)NC(=O)c3cccnc3)cc2)nn1	-1	-3	-4	4	.	1	12	i
Cc1cc(C)c(-c2csc(NC(=O)C3=COCCO3)n2)c(C)c1	.	.	-23	-27	-10	15	2	i
CS(=O)(=O)c1ccc2nc(NC(=O)c3ccc(NS(=O)(=O)c4ccc(F)c(F)c4)cc3)sc2c1	-26	-42	-1	-3	-16	13	-11	i
O=C(Nc1ccc(OCCO)cc1)c1csc([C@@H]2C[C@H](O)[C@@H](CO)O2)n1	.	.	3	3	-4	.	30	.
Cc1c(Cl)cccc1NC(=O)CCN1CCOCC1	0	2	1	2	-2	-24	-56	i
O=C(Oc1ccccc1N1C(=O)C2CCCCC2C1=O)c1ccc(Cl)cc1 (configuration not stated)	1	-8	-1	3	-5	-12	-2	i
NCC(c1ccco1)c1c[nH]c2ccccc12 (configuration not stated)	-1	-6	-2	7	-14	.	18	i
COc1cc(C(C)=O)ccc1OCC(=O)NCC(c1ccc(F)cc1)N1CCOCC1 (configuration not stated)	.	.	2	-1	-6	-14	-8	.
NC(=O)C1C(=O)c2ccccc2C1(C[N+](=O)[O-])c1ccccc1 (configuration not stated)	.	.	-5	5	2	.	6	.
CCc1cccc(CC)c1NC(=O)C(CC)Sc1nc2ccncc2[nH]1 (configuration not stated)	-1	-6	4	0	-23	-13	-5	i
Cc1sc2nc(CSCC(=O)Nc3c(F)cccc3F)[nH]c(=O)c2c1C	.	.	-2	-9	-15	-18	.	i
CCOC(=O)Cn1c(=O)oc2cc(S(=O)(=O)N3CCN(C(=O)OCC)CC3)ccc21	6	-5	3	1	-5	8	-4	i
Cc1ccccc1-n1nnnc1SCc1csc(-c2ccccc2)n1	-11	3	-2	2	-15	13	-4	i
Cc1ccc(C)c(NC(=O)C[n+]2ccccc2)c1	0	7	-3	-1	-3	-5	-38	i
COc1ccccc1OCCNc1nc2c(c(=O)n(C)c(=O)n2C)n1C	-4	7	-4	3	-6	-11	21	i
CCCCNC(=O)COC(=O)CCC(=O)c1cccs1	-5	8	4	6	.	-11	22	i
Cc1cnc(C(=O)Nc2ccccc2-n2cccc2)cn1	-14	-1	-1	1	-2	9	.	i
Cc1occc1-c1nnc(SCC(=O)c2ccc3c(c2)OCCO3)n1CC1CCCO1 (configuration not stated)	-10	4	-10	-5	-21	-9	-8	i
CC(=O)c1ccc(NC(=O)CN2CCN(CC(=O)Nc3ccc(C(C)=O)cc3)CC2)cc1	-6	-4	.	.	35	.	9	i
COc1ccc(-c2nc3ccccc3c(=O)n2CCOc2cc(C)ccc2C)cc1	2	2	-6	-4	-17	4	-5	.
COc1ccc(S(N)(=O)=O)cc1C(=O)OCCCOc1ccc(F)cc1	-9	-2	7	-1	-6	5	14	i
CCOc1cc(S(=O)(=O)NCc2ccc(OC)cc2)c(OCC)cc1-n1cnnn1	1	3	-6	-8	-8	.	13	i
Cn1ccc2c(N3CCCCCC3)cc3c(c21)C1CCC3O1 (configuration not stated)	.	.	1	-7	-10	.	23	.
O=C(Nc1cccc(S(=O)(=O)N2CCOCC2)c1)C1CC(=O)N(c2ccc3c(c2)OCCO3)C1 (configuration not stated)	.	.	5	1	-9	.	5	.

Later entries.
SMILES	eIF4H inh	PABP FP inh	MT1-MMP act inh	MT1-MMP act inh RFP	UUG fidelity	CSC inhib	HIV Env fusion	Rce1 inhib
CSCCC(NS(=O)(=O)c1c(Cl)cccc1Cl)C(=O)O (configuration not stated)	15	11	-1	3	11	-3	3	i
COC(=O)c1cn(C)c2ccc(S(=O)(=O)N3CCOCC3)cc2c1=O	-7	-12	0	2	.	3	-7	i
COCCn1c(N)c(N(Cc2ccccc2)C(=O)C2CCCC2)c(=O)[nH]c1=O	-4	2	-3	1	-4	8	-14	i
Cc1c(C(=O)NCc2cccnc2)oc2ccc(S(=O)(=O)N3CCCCC3)cc12	-6	-2	-10	-17	-14	22	10	i
Clc1cccc(NCc2nnc3n2CCCCC3)c1	-2	-6	-1	-1	.	-29	-15	i
N#CCN(C(=O)COC(=O)CCCNC(=O)c1ccc(Cl)cc1)c1ccccc1	.	.	0	-1	8	.	4	.
CCOc1ccc(-c2ccc(SCC(=O)Nc3nnc(C)s3)nn2)cc1	-3	35	2	1	-21	-3	-53	i
CCN(CCCNC(=O)C1c2ccccc2C(=O)N(CCOC)C1c1ccc(F)cc1)Cc1ccccc1 (configuration not stated)	-3	?	.	.	-1	0	-11	i
C/C(=N\Nc1ncc(Br)cn1)c1cccc([N+](=O)[O-])c1	-4	3	-3	-1	-24	-5	-8	i
Cc1c(C(=O)O)oc2ccc(S(=O)(=O)NCCC3=CCCCC3)cc12	-5	4	-2	4	.	-1	.	i
O=C(C1=C[C@H](c2ccc3c(c2)OCO3)C[C@H](OCc2ccc(CO)cc2)O1)N1CCCCCCC1	-2	-4	13	1	-6	4	-53	i
O=C(CC[C@H]1O[C@@H](n2cnc3c(NC(=O)c4ccccc4)ncnc32)[C@H](O)[C@@H]1O)NCC(F)(F)F	.	.	1	3	-7	.	3	.
COCc1nnc(SCC(=O)NCc2ccccc2)n1-c1ccccc1	-7	-4	-2	3	-20	-13	.	i
COCCCNC(=O)CN(CCc1ccccc1)S(=O)(=O)c1ccc(OC)cc1	-5	-7	0	-2	.	-15	15	i
O=C(N/C=C/n1cnc2cc(C(F)(F)F)ccc21)c1ccccc1	9	-4	3	2	.	10	1	i

Another view of some results above:
Every second line gives: eIF4H inh, PABP FP inh, MT1-MMP act inh, MT1-MMP act inh RFP, UUG fidelity, CSC inhib, HIV Env fusion, Rce1 inhib
C/C(=N\Nc1ncc(Br)cn1)c1cccc([N+](=O)[O-])c1
    -4, 3, -3, -1, -24, -5, -8, i
Cc1c(C(=O)O)oc2ccc(S(=O)(=O)NCCC3=CCCCC3)cc12
    -5, 4, -2, 4, ., -1, ., i
O=C(C1=C[C@H](c2ccc3c(c2)OCO3)C[C@H](OCc2ccc(CO)cc2)O1)N1CCCCCCC1
    -2, -4, 13, 1, -6, 4, -53, i

Continuation:
SMILES	eIF4H inh	PABP FP inh	MT1-MMP act inh	MT1-MMP act inh RFP	UUG fidelity	CSC inhib	HIV Env fusion	Rce1 inhib
S=C(NCc1ccccc1)Nc1ccc2ccccc2c1	-10	-2	-11	-2	-34	11	-86	i
CCCCCCn1c(CN2CCN(C(=O)OCC)CC2)nc2c1c(=O)n(C)c(=O)n2C	.	.	9	-5	2	-3	.	i
Cc1ccc(-c2nc(CSCC(=O)NCc3cccnc3)c(C)o2)cc1	3	4	7	-1	-22	-10	58*	i
N=C(N)SCc1ccc(Cl)cc1Cl	7	-4	1	3	.	30	6	i

Just PABP FP inh, HIV Env fusion and Rce1 inhib, for some of the entries so far:
| Molecule | PABP FP inh | HIV Env fusion | Rce1 inhib |
| --- | --- | --- | --- |
| Cc1cc(NC(=O)Nc2cccc(C)c2C)no1 | -6 | 11 | i |
| Nc1ccc(-c2nc3ncccc3o2)c(Cl)c1 | -5 | -108 | i |

A portion of the library, so the mix of outcomes need not match the whole.
